YopH PTP inh – YopH tyrosine phosphatase inhibitors, primary screen, biochemical, fluorescence Ex485/Em525; inhibition, %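 (about 10 µM by stock and volumes)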; 0.16% of 140,000 active;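 active = inhibition of 50% or more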;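 note: controls were vehicle for no effect and minimum signal wells for full effect; inactives centre near -20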
Mtb H37Rv – M. tuberculosis H37Rv growth inhibitors, H37Rv strain (AID 1626); 0.95% of 220,000 active; inhibition, % at 10 µM; hits with a dose series show IC50 in µM; M. tuberculosis H37Rv growth inhibition; higher % means a stronger effect;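 active = confirmed in a dose series; inconclusive = inhibition above 80% but not taken into the dose series; inactive = below 80% or under 30% at every dose of the series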;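 note: bacteria incubated seven days before Alamar blue readout; 0% = bacteria only wells and 100% = bacteria with antibiotic wells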
Arbovirus anti – antivirals against arbovirus infection, primary screen, cell-based, full library, 10K replicate subset. arbovirus infection cell-based antiviral screen. inhibition, % at 10 µM. 0.37% of 200,000 active;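 active = inhibition from about 30%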;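 note: bluetongue infection of BSR cells; cell survival read as ATP light after 72 h; 0% = infected wells without compound and 100% = uninfected wells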
Mtb betalactam – beta-lactam sensitization of Mtb H37Rv, H37Rv; M. tuberculosis H37Rv growth with meropenem, percent inhibition; hits of this screen are not shown here; inhibition, % at 25 µM; 0.27% of 330,000 active; AID 434955, 2010;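 active = about 74% or more and at least 40 points above the plate without the antibiotic, then above 30% in a dose series; inconclusive = first-round hits that could not be retested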;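 note: growth measured after seven days incubation then overnight dye step; 0% = bacteria only wells and 100% = bacteria with antibiotic; twin plates without the antibiotic show which effects depend on it; some results filed as inactive read as strong as hits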
RecA intein inh – Mtb RecA intein splicing inhibitors, primary screen, biochemical, fluorescence, HTS; cell-free RecA intein splicing; inhibition, %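 (about 9 µM by stock and volumes)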; 0.75% of 290,000 active; in the data active = inhibition above about 30%; inconclusive = no clear call, values can overlap the other calls;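 note: 0% = vehicle wells and 100% = reference inhibitor control wells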
Target sequence (P9WHJ3 whole entry, looked up): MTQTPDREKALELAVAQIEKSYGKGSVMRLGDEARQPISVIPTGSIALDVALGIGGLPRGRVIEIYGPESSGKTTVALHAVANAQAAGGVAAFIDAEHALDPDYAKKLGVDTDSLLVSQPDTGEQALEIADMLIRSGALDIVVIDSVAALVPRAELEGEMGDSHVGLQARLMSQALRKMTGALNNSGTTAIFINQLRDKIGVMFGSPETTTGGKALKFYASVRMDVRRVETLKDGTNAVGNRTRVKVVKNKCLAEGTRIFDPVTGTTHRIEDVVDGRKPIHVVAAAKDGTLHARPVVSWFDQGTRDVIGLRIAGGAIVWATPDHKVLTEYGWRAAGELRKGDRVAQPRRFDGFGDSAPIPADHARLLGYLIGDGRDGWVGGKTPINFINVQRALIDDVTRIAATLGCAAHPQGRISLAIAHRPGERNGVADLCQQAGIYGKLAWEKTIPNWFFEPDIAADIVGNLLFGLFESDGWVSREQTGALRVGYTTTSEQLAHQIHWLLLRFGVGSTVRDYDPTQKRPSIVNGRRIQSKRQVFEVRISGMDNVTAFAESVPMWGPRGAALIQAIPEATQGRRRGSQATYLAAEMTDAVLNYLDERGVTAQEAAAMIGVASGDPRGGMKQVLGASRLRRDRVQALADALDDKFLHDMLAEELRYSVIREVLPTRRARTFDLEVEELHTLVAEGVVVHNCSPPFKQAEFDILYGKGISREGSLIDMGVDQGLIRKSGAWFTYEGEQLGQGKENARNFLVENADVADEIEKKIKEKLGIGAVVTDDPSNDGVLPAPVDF
Arbovirus anti repeat – further read-out of Arbovirus anti, marked with its call; inhibition, %; measured here: 10K subset replicate screen; many hits read low in the repeat;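 first of two repeat runs on a subset; 0% = infected and 100% = uninfected wells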
An asterisk follows results filed as active. Some of the compounds tested; count on the stated rates, not on these rows.

For CC12CCC(=O)N1C(C(=O)NCCN1C(=O)S/C(=C\c3ccc(OC(F)F)cc3)C1=O)CS2 (stereo not given) the results were Mtb betalactam -2 and RecA intein inh 3.4.
`Cc1cc(C)cc(NC(=O)Nn2cnnc2)c1` gave Mtb betalactam 0 and RecA intein inh 2.2.
`O=C(O)CCC(=O)Nc1ccc(N2CCCCCC2)cc1` gave YopH PTP inh -21, Arbovirus anti 12, Mtb betalactam 10 and RecA intein inh -6.1.
For COC(=O)c1ccccc1N1CCS(=O)(=O)CC1 the results were Mtb H37Rv 5%, Arbovirus anti 5, Mtb betalactam 0 and RecA intein inh -2.7.
Screening Cn1c(=O)[nH]c(=O)c2c1nc(CN1CCOCC1)n2CCCc1ccccc1 returned YopH PTP inh -5, Mtb H37Rv 5%, Arbovirus anti -1, Mtb betalactam 1 and RecA intein inh 2.6.
Screening COCCn1c(SCC(=O)Nc2nnc(C)s2)nnc1-c1cc2ccccc2cc1O returned YopH PTP inh -28, Mtb H37Rv 1%, Arbovirus anti 4, Mtb betalactam -25 and RecA intein inh -5.4.
Screening CCC(Oc1ccccc1)C(=O)N1CCN(CC)CC1 (stereo not given) returned YopH PTP inh -9, Mtb H37Rv -5%, Arbovirus anti 5, Mtb betalactam -9 and RecA intein inh -4.3.
Screening Nc1nc(C2CC2)c(Sc2sc(N)nc2C2CC2)s1 returned YopH PTP inh -38, Mtb H37Rv 5%, Arbovirus anti -13, Mtb betalactam 7 and RecA intein inh 4.9.
For CCOC(=O)c1ccc(NC(=O)C2(c3ccc(OC)cc3)CCCC2)cc1 the results were YopH PTP inh -2, Mtb H37Rv 54%, Arbovirus anti 9, Mtb betalactam 80 and RecA intein inh 0.9.
CC1Cc2ccccc2N1C(=S)NC(=O)c1ccc(Cl)cc1Cl (stereo not given) was read as YopH PTP inh 5, Mtb H37Rv inconclusive, Arbovirus anti -17, Mtb betalactam 96 and RecA intein inh 3.8.
Screening Cc1cc(=O)[nH]c2c(C)cc(S(=O)(=O)Nc3ccc(O)cc3)cc12 returned Mtb betalactam 9 and RecA intein inh -2.9.
For c1ccc(CC2CCN(c3ncnc4sccc34)CC2)cc1 the results were Mtb H37Rv 0%, Arbovirus anti -2 and RecA intein inh 17.
`CS(=O)(=O)N(CC(=O)N1CCc2ccccc2C1)c1cccc(Br)c1` gave Mtb betalactam -7 and RecA intein inh 1.7.
Screening CC(C)CCN1NC2(CCCC(C)C2)NC1=S (stereo not given) returned Mtb H37Rv 0% and Mtb betalactam -8.
CC(C)Cn1c(-c2ccc(Cl)cc2)cnc1SCC(=O)N1CCOCC1 was read as YopH PTP inh -37, Mtb H37Rv 3%, Arbovirus anti 1, Mtb betalactam 1 and RecA intein inh -2.9.

Entries listed so far that contain a halogen (four):
For CC12CCC(=O)N1C(C(=O)NCCN1C(=O)S/C(=C\c3ccc(OC(F)F)cc3)C1=O)CS2 (stereo not given) the results were Mtb betalactam -2 and RecA intein inh 3.4.
CC1Cc2ccccc2N1C(=S)NC(=O)c1ccc(Cl)cc1Cl (stereo not given) was read as YopH PTP inh 5, Mtb H37Rv inconclusive, Arbovirus anti -17, Mtb betalactam 96 and RecA intein inh 3.8.
`CS(=O)(=O)N(CC(=O)N1CCc2ccccc2C1)c1cccc(Br)c1` gave Mtb betalactam -7 and RecA intein inh 1.7.
CC(C)Cn1c(-c2ccc(Cl)cc2)cnc1SCC(=O)N1CCOCC1 was read as YopH PTP inh -37, Mtb H37Rv 3%, Arbovirus anti 1, Mtb betalactam 1 and RecA intein inh -2.9.

Remaining list, next part.
O=C(CNC(=O)OCc1ccccc1)NC1CCCCCC1 was read as Mtb H37Rv 4%, Arbovirus anti -6, Mtb betalactam 1 and RecA intein inh 1.1.
`Cc1ccc(OCC(=O)Nc2ccc(O)c(-c3nc4ccccc4o3)c2)cc1` gave YopH PTP inh -20, Arbovirus anti 8, Mtb betalactam 38, RecA intein inh -6.3 and Arbovirus anti repeat -3.
For CCCc1[nH]nc2c1C(c1cccnc1)C(C#N)=C(N)O2 (stereo not given) the results were YopH PTP inh -34, Mtb H37Rv 3%, Arbovirus anti -6 and Mtb betalactam -10.
CC(C)CC1NC(=O)N(CC(=O)N2CCN(S(=O)(=O)c3ccccc3)CC2)C1=O (stereo not given) was read as YopH PTP inh -7, Mtb H37Rv -12%, Arbovirus anti 0, Mtb betalactam -11 and RecA intein inh -0.7.
O=C(CCc1ccccc1)NC(=S)Nc1cccc(Br)c1 was read as YopH PTP inh -21, Mtb H37Rv 8%, Arbovirus anti -11, Mtb betalactam 6 and RecA intein inh 4.0.
For CCCNC(=O)Nc1ccc2c(c1)nc(C)n2C the results were YopH PTP inh -6, Mtb H37Rv 2%, Arbovirus anti 3, Mtb betalactam -4 and RecA intein inh -4.4.
CCCCCCCCOC(=O)C(NC(=O)CCC(=O)Nc1ccc(S(N)(=O)=O)cc1)C(O)c1ccccc1 (stereo not given) was read as YopH PTP inh -20, Mtb H37Rv 4%, Arbovirus anti 4, Mtb betalactam -12 and RecA intein inh -0.6.
Screening O=C(c1cc(Cl)ccc1Cl)N1CCOCC1 returned YopH PTP inh -41, Mtb H37Rv -11%, Arbovirus anti 2, Mtb betalactam -2 and RecA intein inh -3.7.
O=C(Cc1ccc(-c2ccccc2)cc1)Nc1ncccc1O was read as Mtb betalactam 55 and RecA intein inh 3.7.
Screening CC(=O)CCn1cnc([N+](=O)[O-])n1 returned Mtb H37Rv -1%, Arbovirus anti 2, Mtb betalactam -3 and RecA intein inh -2.4.
`Cc1ccc(N=C2NC(=O)/C(=C\c3ccco3)S2)cc1` gave YopH PTP inh -4, Mtb H37Rv 4%, Arbovirus anti 2, Mtb betalactam 55 and RecA intein inh 3.5.
Screening CCCNC(=O)c1ccc2c(c1)nc(C)n2-c1cccc(C)c1 returned Mtb betalactam -2 and RecA intein inh 0.6.
Screening CC1=C(C)CC(C(=O)NNC(=O)c2csc3c2CCC(C(C)(C)C)C3)C(C(=O)O)C1 (stereo not given) returned YopH PTP inh -33, Mtb H37Rv -5%, Arbovirus anti 8, Mtb betalactam 9 and RecA intein inh -1.5.
`Cc1ccc(S(=O)(=O)N(CCCO)CC(O)CON=C2c3ccccc3-c3ccccc32)cc1` (stereo not given) gave YopH PTP inh -21, Mtb H37Rv 4%, Arbovirus anti -46, Mtb betalactam 5 and RecA intein inh 10.0.
`Cc1oc(-c2ccc(Cl)cc2)nc1CS(=O)CC(=O)NCc1ccccn1` (stereo not given) gave Mtb betalactam -6 and RecA intein inh 1.9.
O=C(Cc1ccccc1)Oc1ccc([N+](=O)[O-])cc1 was read as Mtb betalactam 2 and RecA intein inh 0.0.
`O=C(N/N=C/c1cc(Cl)cc([N+](=O)[O-])c1O)c1ccccc1NS(=O)(=O)c1cccs1` gave Mtb H37Rv 8%, Mtb betalactam 9 and RecA intein inh 33*.
For C/C(=N\NC(=O)COc1ccccc1[N+](=O)[O-])c1cccs1 the results were Mtb H37Rv 0%, Arbovirus anti -5, Mtb betalactam 3 and RecA intein inh 5.9.
O=C(CSc1nc2ncc(Br)cc2[nH]1)c1cccc([N+](=O)[O-])c1 was read as YopH PTP inh -4, Mtb H37Rv -8%, Arbovirus anti -10, Mtb betalactam -4 and RecA intein inh 4.2.
For Oc1c(Br)cc(Br)cc1/C=N/n1c(-c2ccccc2)n[nH]c1=S the results were Mtb betalactam -1 and RecA intein inh -0.5.
For Cc1nc2c(sc(=S)n2Cc2ccco2)c(=O)n1CC(=O)Nc1ccc(F)cc1 the results were Mtb betalactam 6 and RecA intein inh -4.7.
Screening CCN(Cc1ccccc1)C(=O)CN1C(=O)COc2ccc(S(=O)(=O)NC3CCCC3)cc21 returned Mtb betalactam 2 and RecA intein inh 0.4.
Cc1c(CCCN)c2ccccc2n1Cc1ccccc1 was read as Mtb H37Rv -2%, Arbovirus anti -32, Mtb betalactam 1 and RecA intein inh -1.2.
For CCOC(=O)N1CCN(C(=S)Nc2ccc(C)cc2C)CC1 the results were Mtb H37Rv 6%, Arbovirus anti -1, Mtb betalactam 1 and RecA intein inh 5.7.
Screening COc1ccc(/C=N/OCC(=O)N2CCCC2)c(OC)c1 returned Mtb H37Rv -1%, Arbovirus anti 13, Mtb betalactam -3 and RecA intein inh -3.8.
`Cc1ccc([N+](=O)[O-])c(OCCN2C(=O)NC(C)(C)C2=O)c1` gave Mtb H37Rv -1%, Arbovirus anti -1, Mtb betalactam 3 and RecA intein inh 1.1.
`Cc1n[nH]c(=S)n1-c1ccc(Cl)cc1` gave Mtb H37Rv -1%, Arbovirus anti -8, Mtb betalactam -9 and RecA intein inh -0.3.
Screening CC(C)(C)OC(=O)[C@H](Cc1ccccc1)NC(=O)c1nc[nH]c1C(=O)N1CCN(C(=O)OC(C)(C)C)CC1 returned Mtb betalactam -5 and RecA intein inh -1.3.
Screening CCC(=NCCc1c(C)[nH]c2ccccc12)C1=C(O)CC(c2ccccc2)CC1=O (stereo not given) returned YopH PTP inh -29, Mtb H37Rv 2%, Arbovirus anti -10, Mtb betalactam 5 and RecA intein inh 0.5.
Screening O=C(Nc1cc(C(F)(F)F)ccc1F)C1CCC1 returned YopH PTP inh -24, Mtb H37Rv 4%, Arbovirus anti 1, Mtb betalactam -5 and RecA intein inh -0.9.
O=C(CNC(c1ccccc1)c1ccccc1)Nc1ccccc1Br was read as Mtb betalactam -7 and RecA intein inh 8.2.
CCN(CC)S(=O)(=O)c1ccc(NC=C(C#N)C#N)cc1 was read as Mtb H37Rv -2%, Mtb betalactam -6 and RecA intein inh -0.6.
Screening O=C(c1cccc(S(=O)(=O)N2CCCC2)c1)c1nnc(-c2ccncc2)o1 returned YopH PTP inh -24, Mtb H37Rv -2%, Arbovirus anti 2, Mtb betalactam 2 and RecA intein inh 0.3.
Screening CCOC(=O)Cn1c(CN(Cc2ccccc2)Cc2ccccc2)nc2c1c(=O)n(C)c(=O)n2C returned YopH PTP inh -13, Mtb H37Rv -3%, Arbovirus anti -23, Mtb betalactam -1 and RecA intein inh -1.5.
For Cc1cccc2cc(CN(Cc3ccccc3)C(=O)c3cccc(F)c3)c(Cl)nc12 the results were YopH PTP inh -2, Mtb H37Rv 0%, Arbovirus anti -12, Mtb betalactam 9 and RecA intein inh -0.2.
CCCCNC(=O)/C=C/c1ccc(S(=O)(=O)Nc2ccc(OC)cc2)cc1 was read as Mtb H37Rv 3%, Arbovirus anti 13, Mtb betalactam -1 and RecA intein inh 2.4.
For O=C(CNC(=O)c1cccs1)N=Nc1c(O)[nH]c2ccc(Br)cc12 the results were Mtb betalactam 13 and RecA intein inh 12.
`CCC(C)C(=O)Nc1cc([N+](=O)[O-])ccc1Cl` (stereo not given) gave YopH PTP inh -29, Mtb H37Rv -14%, Arbovirus anti 2, Mtb betalactam -1 and RecA intein inh 0.9.
`COc1cccc(N(C(=O)Cn2nnc(-c3ccc(C)o3)n2)C(C(=O)NC(C)(C)C)c2cccs2)c1` (stereo not given) gave YopH PTP inh -15, Mtb H37Rv -4%, Arbovirus anti 1, Mtb betalactam 6 and RecA intein inh -3.0.
For CCC(=O)N1CCN(c2cc(C)ccc2C)CC1 the results were YopH PTP inh -22, Mtb H37Rv -7%, Arbovirus anti -1, Mtb betalactam -7 and RecA intein inh 1.4.
For Cc1cccc(N2CCN(S(=O)(=O)c3ccc4c(c3)C(C)(C)C(=O)N4C)CC2C)c1 (stereo not given) the results were Mtb betalactam -10 and RecA intein inh 7.4.
`CCn1c(CNC(=O)c2ccco2)nnc1SCC(=O)c1ccc(F)cc1` gave Mtb betalactam -3 and RecA intein inh -1.7.
Screening O=S(=O)(Cc1ccccc1)N1CCN(Cc2ccc(F)cc2Cl)CC1 returned Mtb betalactam 6 and RecA intein inh -1.1.
Screening O=C(Cn1ccnc1[N+](=O)[O-])NCc1ccccc1 returned Mtb betalactam 2 and RecA intein inh 1.6.
For N#CC1=C(N)NC(=S)C(C(N)=O)C1c1ccc(Cl)cc1Cl (stereo not given) the results were Mtb H37Rv 4%, Arbovirus anti -3, Mtb betalactam 3 and RecA intein inh -3.5.

By substructure: those above with a tert-butyl group
Screening CC1=C(C)CC(C(=O)NNC(=O)c2csc3c2CCC(C(C)(C)C)C3)C(C(=O)O)C1 (stereo not given) returned YopH PTP inh -33, Mtb H37Rv -5%, Arbovirus anti 8, Mtb betalactam 9 and RecA intein inh -1.5.
Screening CC(C)(C)OC(=O)[C@H](Cc1ccccc1)NC(=O)c1nc[nH]c1C(=O)N1CCN(C(=O)OC(C)(C)C)CC1 returned Mtb betalactam -5 and RecA intein inh -1.3.
`COc1cccc(N(C(=O)Cn2nnc(-c3ccc(C)o3)n2)C(C(=O)NC(C)(C)C)c2cccs2)c1` (stereo not given) gave YopH PTP inh -15, Mtb H37Rv -4%, Arbovirus anti 1, Mtb betalactam 6 and RecA intein inh -3.0.
